Screening data (PubChem)
VDR inh – blocks the human vitamin D receptor | P11473 | VDR-SRC2-3 peptide fluorescence polarization, 2 h | Potency, µM, without a hit: max response, negative = inhibition, usual class: inhibitors | 0.93% of 400,000 active | AID 504847; active = well fitted inhibition curve with a large enough effect; inconclusive = small, poorly fitted or top-dose-only effect, or another doubt; inactive = no such curve, though single readings can be large or run the other way; note: series mostly up to about 120 µM
Target sequence (P11473 whole entry, looked up): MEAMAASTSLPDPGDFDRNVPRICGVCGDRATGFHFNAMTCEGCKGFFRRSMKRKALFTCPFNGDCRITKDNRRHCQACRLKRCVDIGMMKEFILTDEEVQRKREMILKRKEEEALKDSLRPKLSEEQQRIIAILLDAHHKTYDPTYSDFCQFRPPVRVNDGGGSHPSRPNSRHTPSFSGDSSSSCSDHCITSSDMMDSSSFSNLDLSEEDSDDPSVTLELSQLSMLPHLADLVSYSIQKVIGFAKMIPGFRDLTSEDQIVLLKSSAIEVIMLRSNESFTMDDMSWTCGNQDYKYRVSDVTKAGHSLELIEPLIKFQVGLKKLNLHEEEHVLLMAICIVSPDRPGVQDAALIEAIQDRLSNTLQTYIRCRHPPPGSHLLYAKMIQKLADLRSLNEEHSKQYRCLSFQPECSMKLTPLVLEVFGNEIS
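Compounds are added to VDR with labelled SRC2-3 coactivator peptide and held 2 h at room temperature. Inhibition of the VDR–peptide interaction is then read as a change in fluorescence polarization.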
Starred values were filed as active, the others as inactive; ? = inconclusive; & = joins results of further samples. % is set by controls: 0 for no effect and ±100 for the full control effect; potency is the fitted concentration of half-maximal effect.

No. | SMILES | VDR inh
1 | CCOc1ccc(C(=O)Cn2cnc3ccccc3c2=O)cc1 | -3%
2 | COc1cccc(NC(=O)c2nnn(CCc3ccccc3)c2N)c1 | -14%
3 | O=C(NCCSc1ccccc1)c1ccccc1Cl | -3%
4 | CCCCCCCCC(=O)N/N=C/c1ccccn1 | 15%
5 | COc1ccc(-c2noc(CN(C)Cc3ccccc3)n2)cc1 | -24%
6 | COc1ccc(Oc2ncc3nc(C)c(=O)n(Cc4cccc(OC)c4)c3n2)cc1 | -5%
7 | CCOC(=O)N1CCC(NC(=O)C2CCN(c3nc(-c4ccc(OC)cc4)no3)CC2)CC1 | 1%
8 | N=C1C(c2nc3ccccc3s2)=C(O)CN1Cc1ccco1 | -7%
9 | N#Cc1ccc(N2C(=O)[C@@H]3C(C(=O)c4cnccn4)=NN[C@@H]3C2=O)cc1 | 24%
10 | Cc1ccc(/C=N/NC(=O)C(C)Oc2ccccc2[N+](=O)[O-])s1 (centres undefined) | -3%
11 | CC(Sc1nnc(C2CC2)n1C1CC1)C(=O)Nc1ccccc1C#N (centres undefined) | -2%
12 | c1ccn2c(CNc3ncnc4sccc34)nnc2c1 | 6%
13 | O=C(NC1CCCCC1)c1cc([N+](=O)[O-])ccc1N1CCOCC1 | -5%
14 | O=C(Nc1cc(=O)[nH]c2nc(-c3ccccc3)nn12)c1ccccc1Cl | 11%
15 | O=C(COc1ccccc1C(=O)Nc1ccccc1)c1ccc(Br)cc1 | -9%
16 | Cn1/c(=N/N=C/c2ccccn2)sc2ccccc21 | 11%
17 | C(/C=C/c1ccccc1)=N/N1CCN(c2ccccc2)CC1 | -6%
18 | CC(C)(C)NC(=O)C(c1cccs1)N(Cc1ccco1)C(=O)c1csnn1 (centres undefined) | -1%
19 | CN1CCN(CCCCOc2ccccc2-c2ccccc2)CC1 | 2%
20 | Cc1nc2ccccc2c(=O)n1Cc1ccc([N+](=O)[O-])cc1 | -4%
21 | CS(=O)(=O)N(CC(=O)N1CCN(c2ccccc2)CC1)C1CCCCC1 | ?
22 | CC(C)c1ccc(NC(=O)CSC2=Nc3ccccc3C3=NC(CCC(=O)NC4CCCCC4)C(=O)N23)cc1 (centres undefined) | 3%
23 | O=C(O)Cn1c(=O)c(-c2ccccc2)nc2ccccc21 | -5%
24 | CCn1c(=O)c2c3c(sc2n2c(SCc4ccc(F)cc4)nnc12)CCCC3 | 6%
25 | CCCCn1c(SCC(=O)NCc2ccco2)nc2ccccc2c1=O | -9%

From no. 1 to 4, copied from above:
No. | SMILES | VDR inh
1 | CCOc1ccc(C(=O)Cn2cnc3ccccc3c2=O)cc1 | -3%
2 | COc1cccc(NC(=O)c2nnn(CCc3ccccc3)c2N)c1 | -14%
3 | O=C(NCCSc1ccccc1)c1ccccc1Cl | -3%
4 | CCCCCCCCC(=O)N/N=C/c1ccccn1 | 15%

Returning to the listing; the 4 compounds before the break are reprinted first.
No. | SMILES | VDR inh
22 | CC(C)c1ccc(NC(=O)CSC2=Nc3ccccc3C3=NC(CCC(=O)NC4CCCCC4)C(=O)N23)cc1 (centres undefined) | 3%
23 | O=C(O)Cn1c(=O)c(-c2ccccc2)nc2ccccc21 | -5%
24 | CCn1c(=O)c2c3c(sc2n2c(SCc4ccc(F)cc4)nnc12)CCCC3 | 6%
25 | CCCCn1c(SCC(=O)NCc2ccco2)nc2ccccc2c1=O | -9%
26 | COc1cccc(CN2CCC(n3nccc3NC(=O)C3CC3)CC2)c1 | 5%
27 | COc1cccc(CNC(=O)CCn2c(=O)c3cccn3c3ccc(F)cc32)c1OC | -7%
28 | Cc1ccccc1OCc1nnc(SCC(=O)NCc2ccco2)n1C | 13%
29 | O=C(NCCc1ccccc1)C(=O)NCC1CCCN1S(=O)(=O)c1cccs1 (centres undefined) | -5%
30 | N#Cc1cnc(SCCc2ccccc2)nc1N | -1%
31 | CC1=C(C(=O)O)N2C(=O)C(NC(=O)c3nn(C)c(C)c3Cl)C2SC1 (centres undefined) | -16%
32 | CNC(=S)Nn1cnc2ccccc21 | 26%
33 | O=c1c2c(nc3cc(-c4ccc(Br)cc4)[nH]n13)CCCC2 | 29%
34 | CCN(CC(=O)NCc1cccs1)C(=O)/C=C/c1ccc(Cl)c(Cl)c1 | -8%
35 | O=C(/C=C/c1ccccc1)CC(O)(c1ccccc1)C(F)(F)F (centres undefined) | -88%
36 | O=C(NC1CC1)c1ccc(CS(=O)c2ccccc2)o1 (centres undefined) | -13%
37 | COc1ccccc1-n1c(CNc2ccc(F)cc2)nnc1SCC(=O)Nc1cc(C)on1 | -8%
38 | CCOc1ccc(NC(=S)/C(=C(\[O-])c2ccc(C)c([N+](=O)[O-])c2)[n+]2ccccc2)cc1 | 6%
39 | N#Cc1ccc(NC(=O)Cn2c3[n+](c4ccc(C(F)(F)F)cc42)CCCCC3)cc1 | -10%
40 | COc1ccc(C2(C(=O)Nc3nncs3)CCCC2)cc1 | 15%
41 | CCN(CC)S(=O)(=O)c1ccc(NCC2COc3ccccc3O2)c([N+](=O)[O-])c1 (centres undefined) | -3%
42 | C=C(C)Cn1c(NCCOC)nc2c1c(=O)[nH]c(=O)n2C | 1%
43 | CC(/C=N/n1c(COc2ccccc2)n[nH]c1=S)=C\c1ccccc1 | 13%
44 | COc1ccc(CN(C)C(=O)c2cccc(NS(=O)(=O)c3ccccc3)c2)c(OC)c1 | 4%
45 | COc1cccc(C(=O)Nc2nnc(SCC(=O)NC3CC3)s2)c1 | -1%
46 | COc1cc2c(cc1OC)CN(C(=O)CCNS(=O)(=O)c1ccc(Br)cc1)CC2 | -8%
47 | CN(C)c1cc(NC(=O)CN2CCOCC2)c2ccccc2n1 | -5%
48 | O=C(Nc1cccc(S(=O)(=O)NC2=NCCC2)c1)c1ccc(F)cc1F | 18%
49 | CCCCn1c(N)c(N(CC)C(=O)c2c(C)noc2C)c(=O)[nH]c1=O | 16%
50 | CC1=C(C(N)=O)C(c2ccncc2)n2nc(-c3ccccc3Cl)nc2N1 (centres undefined) | 9%

The list goes on:
No. | SMILES | VDR inh
51 | CCN(CC)c1ccc(NC(=O)c2ccc(Br)o2)c(C)c1 | 2%
52 | CC(=O)Nc1cccc(OCCCNC(=O)c2cccc3ccccc23)c1 | -10%
53 | COc1ccc(C2CC(=O)C(C=NCCN3CCN(C(C)=O)CC3)=C(O)C2)cc1 (centres undefined) | 10%
54 | CCOc1ccccc1N(CC(=O)NCC1CCCO1)C(=O)CCC(=O)Nc1ccccn1 (centres undefined) | 3%
55 | C/C(=N\NC(=O)c1nnn(-c2nonc2N)c1CN1CCOCC1)c1ccc(CC(C)C)cc1 | 18%
56 | Cc1ccccc1Nc1nc(N)nc(CN2C(=O)NC3(CCCCC3C)C2=O)n1 (centres undefined) | 6%
57 | COc1ccc(Cl)cc1CNCCCSc1ncccn1 | -13%
58 | COc1ccc(-c2cc(C(F)(F)F)n3nc(C(=O)NCc4ccco4)c(Cl)c3n2)cc1 | 0%
59 | COc1ccc(-c2noc(CSc3nnc(Cc4ccccc4)n3-c3cccc(C)c3)n2)cc1OC | 2%
60 | O=[N+]([O-])c1ccc2cn(-c3ccccc3)nc2c1 | -16%
61 | C=CCn1c(SCC(=O)NCc2ccco2)nnc1-c1ccc2ccccc2n1 | -8%
62 | COc1ccc(Cn2nnnc2C(c2ccncc2)N2CCOCC2)cc1 (centres undefined) | 4%
63 | CCC(CO)Oc1cc(NCc2cccc(Cl)c2)c2ncn(C(C)C)c2c1 (centres undefined) | ?
64 | C=CC[C@@H](CC(=O)NCCO)C(=O)N[C@@H](C)COC(=O)[C@@H](CC=C)Cc1ccc(F)cc1 | -14%
65 | Cc1cccc(C)c1NC(=O)COC(=O)C1C2CC3OC(=O)C1C3C2 (centres undefined) | -8%
66 | Cc1c(OCC(=O)NCC(O)c2ccccc2)ccc2c3c(c(=O)oc12)CCC3 (centres undefined) | -4%
67 | CC1(C)Cc2cccc(OCC(=O)N3CCN(c4ccccc4Cl)CC3)c2O1 | -18%
68 | N=c1ccn2c(n1)O[C@H]1[C@@H](CO)[C@H](O)O[C@H]12 | -19%
69 | COc1ccc2cc(CNc3ccc(OC)c(OC)c3)c(=O)n(CC(=O)Nc3ccc(C)cc3)c2c1 | 6%
70 | Cc1ccc(NC(=O)c2cc(NC(=O)CCC(=O)O)ccc2N2CCCCC2)cc1 | 4%
71 | CS(=O)(=O)N1CCN(c2ccc([N+](=O)[O-])cc2C(F)(F)F)CC1 | ?
72 | COCCn1c(=O)c(CCc2ccccc2)nc2cnc(OCc3ccccc3)nc21 | 1%
73 | O=C1[C@@H]2C(Cc3ccc(O)cc3)NC3(C(=O)Nc4ccc(F)cc43)[C@@H]2C(=O)N1c1ccc(F)cc1 (some centres undefined) | -10%
74 | O=C1C(=O)N(Cc2cccnc2)C(c2cccc([N+](=O)[O-])c2)/C1=C(\O)c1ccc2c(c1)OCCO2 (centres undefined) | -10%
75 | O=C(Cc1ccccc1)c1nnc(-c2ccccc2)o1 | -14%

(more compounds)
No. | SMILES | VDR inh
76 | COc1ccc(-c2nc(Cn3c(SCc4cccc(F)c4)nc4cccnc43)c(C)o2)cc1 | 5%
77 | Cc1ccccc1Cn1cc(C)c(=O)[nH]c1=O | -11%
78 | CCOc1ccc(CNC(=O)CCS(=O)(=O)c2ccc3c(c2)oc(=O)n3C)cc1 | 11%&16%
79 | COc1ccc(NC(=O)C2CCN(S(=O)(=O)c3cccc4cccnc34)CC2)cc1 | 2%
80 | COc1cccc(-n2c(=O)c3c(C)c(C(=O)N(C)C)sc3n(Cc3ccc(F)cc3Cl)c2=O)c1 | 20%
81 | CO/N=C(\C(=O)NC1C(=O)N2C(C(=O)OCOC(=O)C(C)(C)C)=C(/C=C\c3scnc3C)CSC12)c1csc(N)n1 (centres undefined) | 35µM*
82 | CCOC(=O)c1cc(-c2csc(N/N=C/c3ccccc3Cl)n2)on1 | 1%
83 | COCCN1CN=C(NS(=O)(=O)c2ccc(C)cc2)NC1 | -4%&26%
84 | COC(=O)[C@H](CCSC)NC(=O)Nc1cc(C)ccc1C | 4%
85 | CCN(C(=O)CSc1nncn1-c1ccccc1)c1c(N)n(Cc2ccccc2)c(=O)[nH]c1=O | -6%
86 | Nc1cc(Cl)ccc1C(=O)OCC(=O)N1CCCC1 | 10%
87 | O=C(Cn1c(=O)nc(-c2ccccc2)c2cc(Cl)ccc21)N1CCN(c2ccccc2F)CC1 | 6%
88 | CCCc1noc2c1C(c1cc(Br)ccc1F)C(C#N)=C(N)N2 (centres undefined) | -3%
89 | O=C(c1cccc(F)c1)N1CCN(c2cccc(C(F)(F)F)c2)CC1 | 15%
90 | CC/C=C\C/C=C\C/C=C\C/C=C\C/C=C\CCC(=O)O[C@H](COCCCCCCCCCCCCCCCC)COP(=O)([O-])OCC[N+](C)(C)C | -9%
91 | COc1ccccc1Nc1c2c(nc3ccc(NC(=O)/C=C/c4cccc(OC)c4OC)cc13)CCCC2 | -12%
92 | O=C(NCc1ccco1)C1CCN(C(=O)c2ccc(Cl)cc2Cl)CC1 | 4%
93 | OC(CCc1ccncc1)COc1ccccc1 (centres undefined) | -23%
94 | CCc1ccc(-c2cc(C)no2)cc1S(=O)(=O)N1CCN(c2ccccn2)CC1 | -11%
95 | CCOC(=O)c1cc(C#N)c(SCc2cccc3ccccc23)nc1C | -1%
96 | CC(C)(C)c1ccc(OCC(=O)N/N=C/C2CC=CCC2)cc1 (centres undefined) | -20%
97 | Cc1cccc(/C(N)=N/OC(=O)N2c3ccccc3Sc3ccccc32)c1 | 6%
98 | CCOC(=O)N1CCC2CC1c1cc(-c3cccc(OC)c3)ccc12 (centres undefined) | 2%
99 | O=C(O)c1ccn[nH]1 | -1%
100 | CCOC(=O)c1ccc2[nH]c(C)c(CN3CCN(C)CC3)c(=O)c2c1 | 6%

Further entries.
No. | SMILES | VDR inh
101 | Cc1cccc(CCNC(=O)C2CCN(S(=O)(=O)c3c(C)noc3C)CC2)c1 | 15%
102 | Cc1ccc(CC(=O)Nc2cc([N+](=O)[O-])ccc2F)cc1 | -8%
103 | Cc1cc(NS(=O)(=O)c2ccc(NC(=O)CN3C(=O)c4ccccc4C3=O)cc2)nc(C)n1 | -3%
104 | Cc1ccc(/C=N/NC(=O)c2nnn(-c3nonc3N)c2CN(C)c2ccccc2)s1 | 15%
105 | CCC(C)(C)NC(=O)CN(C(=O)CCC(=O)Nc1cc(C)ccn1)c1ccc2c(c1)OCO2 | 21%
106 | COCCNC(=O)C(c1ccc(O)cc1)N(C(=O)CCC(=O)Nc1nccs1)c1cccc(C)c1 (centres undefined) | -10%
107 | Cc1ccccc1CSc1nn2c(=O)c(C)nnc2s1 | -2%
108 | O=[N+]([O-])c1ccc(Cl)c(/C=N/N2CCN(c3ccccc3)CC2)c1 | 4%
109 | COc1ccccc1NC(=O)Oc1cccc(OC(=O)c2ccccc2)c1 | -5%
110 | COc1ccc(-n2ccnc2SCC(=O)NC2CCCC2)cc1 | ?
111 | CCCc1ccccc1OCCNS(=O)(=O)c1cc2c(cc1C)OCC(=O)N2 | -1%
112 | NC(=O)C1(N2CCCCC2)CCN(Cc2nc(-c3cccs3)no2)CC1 | -8%
113 | O=C(CN1CCN(c2ccc(O)cc2)CC1)NC(=O)NCc1ccco1 | 16%
114 | O=C1c2c(Br)c(Br)c(Br)c(Br)c2C(=O)N1c1ccccn1 | -18%
115 | CCOCCCNC(=O)CN1CCN(Cc2ccccc2C)C1=O | 3%
116 | COc1ccc(C(=O)O/N=C(\N)c2ccccn2)cc1 | 3%
117 | CCN(CC)C(=O)N1CCN(S(=O)(=O)c2ccc(C)cc2)CC1 | 4%
118 | Cc1ccccc1-c1nccc(-n2ccnc2)n1 | ?
119 | COC(=O)C1=CN(Cc2ccc(OC)cc2)C=C(C(=O)OC)C1c1cccs1 | 5%
120 | CC(=O)Nc1ccc(NC2=Nc3ccccc3N3C2=Nc2c(c(C)nn2-c2ccccc2)C3c2ccccc2)cc1 (centres undefined) | 8%
121 | Cc1ccc(C(=O)CSc2nc3cc(S(=O)(=O)N4CCOCC4)ccc3o2)cc1 | -4%
122 | COc1ccc(C(=O)NCCCN(C)CCCNC(=O)c2ccc(OC)cc2)cc1 | -11%
123 | C=CCn1c(O)c2ccc(C(=O)N=NC(=O)c3ccc(F)cc3)cc2c1O | 9%

An excerpt; rates above refer to the full screens.
